FGF22 binding: shifts melting point of recombinant human FGF22 | calls only at 9.99 µM | recombinant FGF22 thermal shift, SYPRO orange fluorescence; percent of sucrose octasulfate shift, DMSO zero | 1.5% of 340,000 active | Q9HCT0 | AID 651658;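 active means melting point raised past a set limit in the mean and every replicate; three in four hits are not shown here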
Target sequence (Q9HCT0 whole entry, looked up): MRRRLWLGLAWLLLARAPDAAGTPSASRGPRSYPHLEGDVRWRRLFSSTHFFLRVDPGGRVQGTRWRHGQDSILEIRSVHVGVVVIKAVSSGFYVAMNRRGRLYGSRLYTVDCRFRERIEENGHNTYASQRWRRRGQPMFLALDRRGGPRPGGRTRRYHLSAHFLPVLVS
rRNA inh HTS: inhibitors of bacterial rRNA selective over humanized ribosomes. AID 720706. 1.6% of 350,000 active. E. coli WT GFP vs humanized-ribosome RFP mutants, fluorescence, 24 h; hits give low values; DMSO median 0, no signal -100. GFP signal change (wild-type ribosome), % (no concentration beside the values);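 active means significant combined selectivity score with lowered wild-type GFP, culture density cut under 30%, mutant RFP and density less affected; inactive means any of these conditions unmet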; further: one replicate is shown; some compounds called inactive have numbers as strong as hits
HNF4A DNA FP: change in binding of human HNF4 alpha to DNA; activity change, % at 10 µM; AID 1224865; P41235; 0.3% of 360,000 active; HNF4a-FITC DNA binding, fluorescence polarization, 1 h; in the data active means activity change above about 30%, passing the limit was not always enough;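 further: controls were the assay level and a saturating level of protein; the project sought stronger binding though the title names inhibitors; some compounds called inactive have numbers as strong as hits; positive values seem to mean higher polarization but the record does not say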
Target sequence (P41235 whole entry, looked up): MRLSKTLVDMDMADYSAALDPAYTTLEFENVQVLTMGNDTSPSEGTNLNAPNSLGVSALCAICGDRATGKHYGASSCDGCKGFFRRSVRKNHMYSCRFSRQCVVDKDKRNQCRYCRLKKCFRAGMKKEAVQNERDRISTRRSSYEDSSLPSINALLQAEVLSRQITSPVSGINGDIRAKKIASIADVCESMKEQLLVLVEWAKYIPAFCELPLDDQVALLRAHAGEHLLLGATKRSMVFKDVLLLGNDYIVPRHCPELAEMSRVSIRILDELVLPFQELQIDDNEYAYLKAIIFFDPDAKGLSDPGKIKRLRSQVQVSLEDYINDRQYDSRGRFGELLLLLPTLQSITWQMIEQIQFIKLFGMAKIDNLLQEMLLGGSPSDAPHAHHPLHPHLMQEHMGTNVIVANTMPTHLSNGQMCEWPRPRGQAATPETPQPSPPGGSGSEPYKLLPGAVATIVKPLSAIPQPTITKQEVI
rRNA inh HTS OD600: further read-out of rRNA inh HTS, marked with its call; OD600 change, %; measured here: OD600 growth;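 optical density of the mix in the first replicate; 0 = DMSO median and -100 = no signal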
rRNA inh HTS RFP: second read-out of rRNA inh HTS, no call of its own (marks repeat the call); RFP signal change, %; measured here: RFP humanized mutant strains;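 first replicate; 0 = DMSO median and -100 = no signal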
Numbers without * were called inactive; i = inactive; · = not tested or not shown. The list is partial (hit frequency here may not be typical).

FGF22 binding,rRNA inh HTS,rRNA inh HTS OD600,rRNA inh HTS RFP,HNF4A DNA FP,canonical_smiles
·,·,·,·,0.4,CNc1nc(Nc2ccc(C(=O)OC)cc2)c2sccc2n1
·,·,·,·,-2.5,Cn1nccc1-c1ccc(C(=O)NCc2ccc(Cl)cc2)c2occc12
·,·,·,·,1.0,CCc1nc2c(OCc3cccc(Cl)c3)cccn2c1N(C)C(=O)C1CC1
·,·,·,·,-34,COC1=CC(=NCl)C=CC1=NCl
·,·,·,·,1.5,CC(C)(C)c1ccc(C(=O)N2CCC2(C)C(=O)Nc2ccc3nc[nH]c3c2)cc1 (stereo not drawn)
·,·,·,·,-0.1,COc1ccc(OCCN2CCC(C(=O)NC(c3ccc(Cl)cc3)c3ncccc3C)CC2)cc1 (stereo not drawn)
·,·,·,·,-4.3,CCOc1ccc(N=Cc2ccc(N(C)C)cc2)c(O)c1
·,·,·,·,-0.5,NC(=O)c1cccc(-c2ccnc3c2CC(C(=O)Nc2cccc(Oc4ccccc4)c2)O3)c1 (stereo not drawn)
·,·,·,·,2.1,CC1CC2(CC(CN(C3CCCCC3)C3CCCCC3)OC2=O)C(=O)O1 (stereo not drawn)
·,·,·,·,0.4,COCCNC(=O)C1CCCN(Cc2ccccc2F)CC1 (stereo not drawn)
·,·,·,·,0.6,COc1ccc(C(NC(=O)C2CCN(CCCc3ccccc3)CC2)c2ccccn2)cc1 (stereo not drawn)
·,·,·,·,3.0,O=[N+]([O-])C1C(c2ccccc2)C12c1ccccc1-c1ccccc12 (stereo not drawn)
·,·,·,·,0.9,COCCNC(=O)C1(C)CCCN(Cc2ccc(Cl)nc2)C1 (stereo not drawn)
·,·,·,·,4.3,Cc1ccc(Cc2c(-c3ccc(C)cc3)nc3c(Cl)cc(C(F)(F)F)cn23)cc1
·,·,·,·,1.5,CCc1nc2c(OCCOc3ccccc3)cccn2c1N(C)C(=O)C1CC1
·,·,·,·,0.8,CCCS(=O)(=O)NC(=O)C1(C)CCN(C(=O)c2ccc(F)cc2Cl)C1 (stereo not drawn)
·,·,·,·,-0.4,O=C(Nc1ccccc1)OCCc1ccccc1
·,·,·,·,2.8,CC(=O)c1cccc(NC(=O)C2Cc3c(-c4ccc(Cl)cc4)ccnc3O2)c1 (stereo not drawn)
·,·,·,·,-2.3,CSC1=NC=C(C#N)C2=NC(c3c(Cl)cccc3Cl)NN12 (stereo not drawn)
·,·,·,·,2.9,CNc1nc(NCCOc2ccccc2)c2sccc2n1
·,·,·,·,-6.7,COc1cccc(-c2cnc(C(O)c3ccc(C)c(F)c3)[nH]2)c1 (stereo not drawn)
·,·,·,·,6.4,Cc1cc2nc(-c3cccc(Cl)c3)c(Cc3ccccc3)n2c(C)c1Br
·,·,·,·,3.7,Cc1cccc(C)c1N1CCN(C(c2cc3ccccc3o2)c2nnnn2C(C)(C)C)CC1 (stereo not drawn)
·,·,·,·,0.8,NC(=O)c1c(NC(=O)c2ccccc2F)sc2c1CCC2

Six compounds out of the list above, sorted by the value under HNF4A DNA FP, high to low.
| Molecule | FGF22 binding | rRNA inh HTS | rRNA inh HTS OD600 | rRNA inh HTS RFP | HNF4A DNA FP |
| --- | --- | --- | --- | --- | --- |
| Cc1cc2nc(-c3cccc(Cl)c3)c(Cc3ccccc3)n2c(C)c1Br | · | · | · | · | 6.4 |
| Cc1ccc(Cc2c(-c3ccc(C)cc3)nc3c(Cl)cc(C(F)(F)F)cn23)cc1 | · | · | · | · | 4.3 |
| CNc1nc(NCCOc2ccccc2)c2sccc2n1 | · | · | · | · | 2.9 |
| CCc1nc2c(OCCOc3ccccc3)cccn2c1N(C)C(=O)C1CC1 | · | · | · | · | 1.5 |
| COCCNC(=O)C1(C)CCCN(Cc2ccc(Cl)nc2)C1 (stereo not drawn) | · | · | · | · | 0.9 |
| CCCS(=O)(=O)NC(=O)C1(C)CCN(C(=O)c2ccc(F)cc2Cl)C1 (stereo not drawn) | · | · | · | · | 0.8 |

(more compounds)
FGF22 binding,rRNA inh HTS,rRNA inh HTS OD600,rRNA inh HTS RFP,HNF4A DNA FP,canonical_smiles
·,·,·,·,60,Cc1ccc(/C=C2\CCC3=C2OC(N)=C(C#N)C3c2ccc(C)cc2)cc1 (stereo not drawn)
·,·,·,·,-21,Cc1cc(Br)cn2c(Cc3ccsc3)c(-c3ccc(C#N)cc3)nc12
·,·,·,·,2.8,COc1ccc(OC(F)(F)F)cc1CC1(C)C(=O)Nc2c(Cl)ccc(Cl)c21 (stereo not drawn)
i,2,-2,-0.1,·,COc1ccc(S(=O)(=O)Nc2ccc3c(c2)CC(=O)N([C@H](C)CO)C[C@@H](C)[C@H](CN(C)S(=O)(=O)c2c(C)noc2C)O3)cc1
i,-1,-5,-0.9,·,CN(C)CC(=O)N1[C@@H]2Cn3c(ccc(C4=CCCC4)c3=O)[C@H]1[C@@H](C(=O)NCC1CCCCC1)[C@@H]2CO
i,2,6,-0.4,·,Cc1cc(C(=O)Nc2ccc3c(c2)C(=O)N(C)[C@@H]2CC[C@H](CC(=O)N[C@@H](C)c4ccccc4)O[C@H]2CO3)no1
i,-3,-12,3.2,·,C[C@H](CO)N1C[C@H](C)[C@@H](CN(C)C(=O)c2cnccn2)Oc2ncc(C#Cc3ccccn3)cc2C1=O
i,-2,-8,-2.1,·,C[C@@H]1CN([C@H](C)CO)C(=O)c2cc(NC(=O)CCCN(C)C)ccc2O[C@@H](C)CCCCO[C@@H]1CN(C)S(=O)(=O)c1ccccc1
i,1,1,-0.4,·,C[C@@H]1CCCCO[C@H](CN(C)S(=O)(=O)c2cn(C)cn2)[C@@H](C)CN([C@@H](C)CO)C(=O)c2cc(NS(C)(=O)=O)ccc2O1
i,-9,-10,-0.1,·,C[C@@H]1CN([C@@H](C)CO)S(=O)(=O)c2ccc(C#Cc3ccccc3F)cc2O[C@H]1CN(C)CC1CCOCC1
i,0,2,1.1,·,O=C(C[C@H]1CC[C@@H](NC(=O)Nc2ccc(C(F)(F)F)cc2)[C@H](CO)O1)NCc1cccc(F)c1
i,-2,-11,6.0,·,CC(C)NC(=O)Nc1ccc2c(c1)C(=O)N([C@H](C)CO)C[C@@H](C)[C@@H](CN(C)Cc1ccc(Cl)c(Cl)c1)OCCCC[C@H](C)O2

Record cards (already shown):
C[C@H](CO)N1C[C@H](C)[C@@H](CN(C)C(=O)c2cnccn2)Oc2ncc(C#Cc3ccccn3)cc2C1=O is listed with FGF22 binding = i; rRNA inh HTS = -3; rRNA inh HTS OD600 = -12; rRNA inh HTS RFP = 3.2; HNF4A DNA FP = ·
C[C@@H]1CN([C@@H](C)CO)S(=O)(=O)c2ccc(C#Cc3ccccc3F)cc2O[C@H]1CN(C)CC1CCOCC1 is listed with FGF22 binding = i; rRNA inh HTS = -9; rRNA inh HTS OD600 = -10; rRNA inh HTS RFP = -0.1; HNF4A DNA FP = ·

Later entries:
FGF22 binding,rRNA inh HTS,rRNA inh HTS OD600,rRNA inh HTS RFP,HNF4A DNA FP,canonical_smiles
i,-4,-2,-2.4,·,C[C@H]1CCCCO[C@H](CN(C)C(=O)Nc2ccc(F)cc2)[C@@H](C)CN([C@@H](C)CO)C(=O)c2cc(NS(C)(=O)=O)ccc2O1
i,-3,12,0.6,·,COc1ccc(CN(C)C[C@H]2Oc3ccc(NC(=O)C4CCCCC4)cc3CC(=O)N([C@@H](C)CO)C[C@@H]2C)cc1
i,4,7,0.3,·,Cc1noc(C)c1NC(=O)Nc1ccc2c(c1)C(=O)N(C)[C@H]1CC[C@@H](CC(=O)N(C)C)O[C@H]1CO2
i,0,4,1.4,·,C[C@@H]1CN([C@@H](C)CO)C(=O)c2cc(NS(=O)(=O)c3ccccc3)ccc2O[C@@H](C)CCCCO[C@@H]1CN(C)C(=O)Nc1cccc2ccccc12
i,-12,-18,4.2,·,CC(C)CC#Cc1ccc2c(c1)O[C@@H](CN(C)C(=O)CC1CC1)[C@@H](C)CN([C@H](C)CO)S2(=O)=O
i,0,3,3.3,·,CN1C(=O)c2cc(NC(=O)c3cccs3)ccc2OC[C@H]2O[C@H](CC(=O)NCC3CC3)CC[C@H]21
i,2,2,-2.5,·,CCC(=O)N[C@@H]1CC[C@H](CC(=O)NCc2ccccc2F)O[C@H]1CO
i,-1,4,6.4,·,C=CCN1[C@@H](C)[C@H](c2ccccc2)Oc2cccc(NCCc3ccccc3)c2S1(=O)=O
i,1,2,0.4,·,C[C@H](CO)N1C[C@H](C)[C@@H](CN(C)C)OCCCC[C@H](C)Oc2ccc(NS(=O)(=O)c3ccc(F)cc3)cc2C1=O
i,-3,-9,-1.2,·,CCCNC(=O)[C@H]1[C@H](CO)[C@H]2Cn3c(ccc(-c4ccc(OC)cc4)c3=O)[C@H]2N1CCC
i,2,3,-0.4,·,CCCC(=O)Nc1ccc2c(c1)C(=O)N(C)C[C@@H](OC)[C@H](C)CN(C(=O)c1cccnc1)[C@H](C)CO2
i,5,3,0.8,·,C[C@@H]1CCCCO[C@@H](CN(C)C(=O)C2CCCCC2)[C@@H](C)CN([C@H](C)CO)C(=O)c2cc(NC(=O)CCCCCC(=O)Nc3ccccc3N)ccc2O1
i,-15,-40,3.5,·,O=C(C[C@@H]1CC[C@H]2[C@@H](COC[C@H](O)CN2Cc2cccc(Cl)c2)O1)NCC1CCCCC1
i,-3,-2,2.2,·,C[C@@H]1CCCCO[C@@H](CN(C)C(=O)Nc2ccc(F)cc2)[C@H](C)CN([C@H](C)CO)C(=O)c2cc(N(C)C)ccc2O1
i,-8,-10,1.7,·,CN1[C@H](C(=O)NC2Cc3ccccc3C2)[C@@H](CO)[C@@H]2Cn3c(ccc(-c4ccccc4)c3=O)[C@@H]21
i,-4,-2,-3.2,·,Cc1cccc(S(=O)(=O)N2C[C@H](O)COC[C@H]3O[C@@H](CC(=O)NCCCN4CCOCC4)CC[C@@H]32)c1
i,3,6,-3.3,·,C[C@@H]1CN([C@@H](C)CO)C(=O)c2c(c3ccccc3n2C)-c2ccccc2CO[C@H]1CN(C)C(=O)Nc1ccc(-c2ccccc2)cc1
i,-10,-16,1.9,·,CN1C(=O)c2cc(NC(=O)c3cccc(F)c3)ccc2OC[C@H]2O[C@H](CC(=O)N3CCc4ccccc4C3)CC[C@H]21
i,4,2,-1.5,·,COC(=O)[C@@H]1[C@@H](CO)[C@@H]2Cn3c(ccc(-c4cccc(C(=O)N(C)C)c4)c3=O)[C@@H]2N1C
i,3,4,1.5,·,C[C@@H]1CN([C@@H](C)CO)C(=O)c2cc(NC(=O)Cc3cn(C)c4ccccc34)ccc2O[C@H]1CN(C)Cc1ccc(C(=O)O)cc1
i,2,4,-1.6,·,C[C@@H]1CN([C@@H](C)CO)C(=O)c2cc(NC(=O)Nc3cccc4ccccc34)ccc2O[C@@H](C)CCCCO[C@H]1CN(C)S(=O)(=O)c1ccc(F)cc1
i,-11,-15,-0.1,·,O=C1CN(S(=O)(=O)c2ccccc2)C[C@H]2[C@@H](c3ccc(Br)cc3)[C@H](CO)N12
i,2,2,-1.6,·,COc1ccc(C(=O)N2C[C@H]3[C@@H](c4ccccc42)[C@H](CO)N3C(=O)c2ccc(F)cc2)cc1
i,-2,-1,1.4,·,C/C=C/c1ccc([C@@H]2[C@H](CO)N(C(=O)CC)C23CN(C(=O)c2ccccc2)C3)cc1
i,-8,-31,8.6,·,C[C@@H]1CN([C@@H](C)CO)S(=O)(=O)c2ccc(C#CC3CCCC3)cc2O[C@@H]1CN(C)Cc1cncnc1

Compound activity: PubChem BioAssay, several laboratories
